Assay outcomes deposited in PubChem BioAssay by National Center for Advancing Translational Sciences (NCATS).
N370S GC mod: qHTS Assay for Inhibitors and Activators of N370S glucocerebrosidase as a Potential Chaperone Treatment of Gaucher Disease; Lysosomal acid glucosylceramidase (Homo sapiens), P04062; actives 0.092% (n = 330,000); Potency, µM (series often up to 59.4 µM), for inactives: at the top dose activity change, negative = inhibition, usual class: inhibitors; N370S GC spleen homogenate, 4MU-glucoside fluorescence; AID 2101, 2009;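 further: 0% = full enzyme activity and -100% = no enzyme basal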
FEN1 inhibitor: qHTS Assay for the Inhibitors of Human Flap endonuclease 1 (FEN1) | Recombinant FEN1 flap cleavage, fluorescence, 15 min | actives 0.35% (n = 390,000) | Potency, µM (series often up to 114 µM), for inactives: at the highest dose activity change, negative = inhibition, actives largely listed as inhibitors; further: nearly all actives have a fitted effect of over 65% in size
Target sequence (P39748 whole entry, looked up): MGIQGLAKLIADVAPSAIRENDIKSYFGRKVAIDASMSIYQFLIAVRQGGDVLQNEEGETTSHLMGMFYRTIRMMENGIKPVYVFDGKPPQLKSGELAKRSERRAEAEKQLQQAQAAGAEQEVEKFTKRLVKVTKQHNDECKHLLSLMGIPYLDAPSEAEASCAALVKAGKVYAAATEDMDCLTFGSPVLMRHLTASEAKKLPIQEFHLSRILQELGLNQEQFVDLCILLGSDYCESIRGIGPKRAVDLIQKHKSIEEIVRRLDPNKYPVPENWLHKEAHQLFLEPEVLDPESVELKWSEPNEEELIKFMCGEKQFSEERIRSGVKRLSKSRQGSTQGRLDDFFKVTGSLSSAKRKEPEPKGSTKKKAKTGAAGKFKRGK
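In this screen, 50 nM flap DNA substrate was added to 10 nM FEN1 pretreated with compound for 15 min at room temperature; cleavage was followed with reads at 0 and 15 min, and Hill fitting gave concentration–response parameters.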
* marks the source's active call; other numbers are inactive results; ? = inconclusive; · = not tested or not shown; & = joins results of further samples; [ ] = remark or other dose. The call rests on the fitted dose curve; in most records, active means well fitted curve in the direction sought with a large enough effect; inconclusive means small, poorly fitted or top-dose-only effect, or another doubt; inactive means no such curve, though single readings can be large; an effect the other way counts as inactive or inconclusive. Unless noted, on the % scale 0 is the no-effect control and ±100 the full control effect; potency means the concentration at half of the fitted maximal effect. These rows are one share of the data, and most or all hits are left out here.

entry	SMILES	N370S GC mod	FEN1 inhibitor
1	COc1cc(NC(=O)CSc2nc(C)cs2)cc(OC)c1	2%	-12%
2	Cc1cccc(NC(=S)Nc2ccc(Cl)c(Cl)c2)c1	-9%	10%
3	Cc1ccc(-c2nnc(N(C)C(=O)c3cccnc3)s2)cc1	-2%	0%
4	N#C/C(=N\Nc1ccccc1Cl)C(=O)c1ccccc1	4%	-2%
5	Fc1ccc(N2CCN(Cc3cn[nH]c3-c3ccccc3)CC2)cc1	28%	-5%
6	CC(=O)Nc1ccc(S(=O)(=O)NNC(=O)c2ccc(C)cc2)cc1	1%[12.8 µM]	-9%
7	CC(CN(C)Cc1ccccc1)OC(=O)c1ccccc1F (stereo not given)	-2%	5%
8	CCNC(=S)N1CCN(c2ncccn2)CC1	-4%	-3%
9	O=C(Nc1ccc(F)cc1F)c1ccc(S(=O)(=O)N2CCCCC2)cc1	-9%	-5%
10	O=C(CN1CCOCC1)Nc1ncc(Cc2ccccc2Cl)s1	-1%	3%
11	CCCc1nc2oc3c(=O)[nH]cnc3c2c2c1CCCC2	-20%	3%
12	NC(N)=NS(=O)(=O)c1ccc(N)cc1	7%	-17%
13	Cc1nc2ccc(S(=O)(=O)NC(CC(C)C)C(=O)O)cc2s1 (stereo not given)	-14%	7%
14	O=C1NC(C(=O)O)=CC(c2ccc([N+](=O)[O-])cc2)N1 (stereo not given)	2%	13%
15	CCCn1nnnc1NC(=O)COc1ccc(Br)cc1	-8%	0%
16	C=CCOc1cccc(C2/C(=C(\O)c3ccc4c(c3)OCCO4)C(=O)C(=O)N2Cc2cccnc2)c1 (stereo not given)	-17%	-10%
17	O=C(/C=C/c1ccccc1)n1cnnc1SC/C=C/c1ccccc1	-11%	8%
18	CCOC(=O)N1CCN(C(=O)COCc2cc(-c3ccc4c(c3)OCO4)on2)CC1	20%	8%
19	CCCCCCCCNC(=S)NCCN1CCCCC1	-24%	5%
20	Cn1c(=O)c2cc(S(=O)(=O)N3CCN(c4cccc(C(F)(F)F)c4)CC3)ccc2n(C)c1=O	-3%	-4%
21	Cc1ccc(SC(C)C(=O)NCc2ccc(F)cc2)cc1 (stereo not given)	10%	6%
22	Cc1cc(Cl)ccc1NC(=S)N(CCCN1CCOCC1)Cc1cccs1	-24%	6%
23	CC1CC(C)(C)N2C(=O)C(=C(C#N)C#N)c3cccc1c32 (stereo not given)	-11%	-2%
24	CCC(=O)N1c2ccccc2CC1C(=O)N1CCN(c2ccccc2F)CC1 (stereo not given)	·	-4%
25	NC(=O)C1CCN(c2cc(N3CCOCC3)ccc2[N+](=O)[O-])CC1	2%	13%
26	c1ccc(CNc2c3c(nc4ncnn24)CCCC3)nc1	-5%	-2%
27	O=[N+]([O-])c1ccc2nc(-c3ccccc3)oc2c1	-4%	12%
28	CCC1C(=O)N=C(SCC(=O)Nc2ccc(Br)cn2)NC1=O (stereo not given)	27%	2%
29	Cc1cc(NC(=O)Cc2ccccc2)nc2c1c(=O)oc1ccccc12	4%	17%
30	COC(=O)c1ccccc1NC(=O)CSc1nnc(-c2ccc(C)cc2)o1	5%	·

Two of the compounds above, with two lines to a compound.
Every second line gives: N370S GC mod | FEN1 inhibitor
11) CCCc1nc2oc3c(=O)[nH]cnc3c2c2c1CCCC2
  -20% | 3%
12) NC(N)=NS(=O)(=O)c1ccc(N)cc1
  7% | -17%

Carrying on.
entry	SMILES	N370S GC mod	FEN1 inhibitor
31	COc1ccc2nc3c(c(-c4ccccc4)c2c1)CCC3	9%&18%	-21%
32	CCCCNC(=O)C1CCN(c2nc(OC)nc(OC)n2)CC1	-4%	2%
33	CCOc1cc(S(=O)(=O)NCc2ccccn2)c(C)cc1C	0%	·
34	COCCCNC(=S)NC(=O)c1ccccc1	8%	9%
35	CC(C)Sc1ncc(Cl)c(C(=O)Nc2c(C(=O)Nc3ccccc3)oc3ccccc23)n1	·	-1%
36	CCOC(=O)c1sc(NC(=O)c2sccc2C)cc1C	3%	7%
37	CCOC(=O)C1(Cc2ccccc2)CCN(Cc2ccc(C3CCCCO3)s2)CC1 (stereo not given)	-19%	-5%
38	COC(=O)C1=C(C)Nc2nnnn2C1c1cc(OC)ccc1OC (stereo not given)	-7%	-14%
39	Cc1ccc(OCc2ccc(-c3nc(C#N)c(N4CCN(c5cccc(Cl)c5)CC4)o3)o2)cc1	·	14%
40	O=C(O)CCSc1nc2ccccc2s1	6%	12%
41	O=C(Nc1ccc2c(c1)OCCO2)C1CCN(S(=O)(=O)c2ccc(Br)s2)CC1	22%	-22%
42	O=C(Nc1ccc(Br)cc1Br)c1cccc2c1C(=O)N(C1CCCCC1)C2	3%	-9%
43	COC1(C2=NCCN2)COc2ccccc2O1 (stereo not given)	-6%&4%	-8%
44	O=C1c2ccccc2COc2ccc(O)cc21	1%	8%
45	COc1ccc(-c2coc3c2c(C)cc2oc(=O)cc(C)c23)cc1	·	-4%
46	Cc1ccc(NC(=O)CN(C)C(=O)CSc2nncn2C)cc1	-18%	-8%
47	O=C(c1cn(-c2ccccc2)nc1-c1cccs1)N1CCN(c2ccc(F)cc2)CC1	-1%	-16%
48	COc1ccc2oc(C(=O)Nc3ccc(C)cn3)c(C)c2c1	?	-2%
49	O=C(NC1CC1)c1cccc(NC(=O)c2cc(S(=O)(=O)N3CCOCC3)ccc2Cl)c1	-12%	8%
50	Cc1ccc(Cl)cc1NS(=O)(=O)c1c(C)[nH]c(=O)[nH]c1=O	-9%	1%
51	CCCCN(CC)CCCNC(=O)c1cn(CC(C)C)c(=O)c2c1c1ccccc1n2C	?	-15%&-11%
52	C/C(=N/NC(=O)CCc1ccccc1)c1ccc2c(c1)OCO2	-12%	-18%
53	COc1ccc2c(c1)C(C)CC(C)(C)N2C(=O)CSc1nc2ccccc2s1 (stereo not given)	25%	-6%
54	COc1cccc(/C(O)=C/C(=O)C(=O)Nc2ccc(S(=O)(=O)NC(C)=O)cc2)c1	-5%	?
55	CCNC(=S)N/N=C/c1c(C)nn(-c2cccc(Cl)c2)c1Cl	1%	-2%
56	Cc1cccc(OCC(O)Cn2c(NCc3cccnc3)nc3c2c(=O)[nH]c(=O)n3C)c1 (stereo not given)	7%	-4%
57	Cc1cc(C(=O)CSc2nc3ccccc3n2CCC#N)c(C)n1Cc1cccs1	-6%	8%
58	CC(C)(C)OC(=O)NCCOC(=O)c1[nH]cnc1C(=O)NCc1ccccc1	·	21%
59	O=c1[nH]c2ccc(F)cc2[nH]c1=O	-4%	-6%
60	COc1cc2ncc3c(-c4ccc(C)cc4)nn(-c4ccc(F)cc4F)c3c2cc1OC	·	-1%

Numbers 31 through 52 from above:
entry	SMILES	N370S GC mod	FEN1 inhibitor
31	COc1ccc2nc3c(c(-c4ccccc4)c2c1)CCC3	9%&18%	-21%
32	CCCCNC(=O)C1CCN(c2nc(OC)nc(OC)n2)CC1	-4%	2%
33	CCOc1cc(S(=O)(=O)NCc2ccccn2)c(C)cc1C	0%	·
34	COCCCNC(=S)NC(=O)c1ccccc1	8%	9%
35	CC(C)Sc1ncc(Cl)c(C(=O)Nc2c(C(=O)Nc3ccccc3)oc3ccccc23)n1	·	-1%
36	CCOC(=O)c1sc(NC(=O)c2sccc2C)cc1C	3%	7%
37	CCOC(=O)C1(Cc2ccccc2)CCN(Cc2ccc(C3CCCCO3)s2)CC1 (stereo not given)	-19%	-5%
38	COC(=O)C1=C(C)Nc2nnnn2C1c1cc(OC)ccc1OC (stereo not given)	-7%	-14%
39	Cc1ccc(OCc2ccc(-c3nc(C#N)c(N4CCN(c5cccc(Cl)c5)CC4)o3)o2)cc1	·	14%
40	O=C(O)CCSc1nc2ccccc2s1	6%	12%
41	O=C(Nc1ccc2c(c1)OCCO2)C1CCN(S(=O)(=O)c2ccc(Br)s2)CC1	22%	-22%
42	O=C(Nc1ccc(Br)cc1Br)c1cccc2c1C(=O)N(C1CCCCC1)C2	3%	-9%
43	COC1(C2=NCCN2)COc2ccccc2O1 (stereo not given)	-6%&4%	-8%
44	O=C1c2ccccc2COc2ccc(O)cc21	1%	8%
45	COc1ccc(-c2coc3c2c(C)cc2oc(=O)cc(C)c23)cc1	·	-4%
46	Cc1ccc(NC(=O)CN(C)C(=O)CSc2nncn2C)cc1	-18%	-8%
47	O=C(c1cn(-c2ccccc2)nc1-c1cccs1)N1CCN(c2ccc(F)cc2)CC1	-1%	-16%
48	COc1ccc2oc(C(=O)Nc3ccc(C)cn3)c(C)c2c1	?	-2%
49	O=C(NC1CC1)c1cccc(NC(=O)c2cc(S(=O)(=O)N3CCOCC3)ccc2Cl)c1	-12%	8%
50	Cc1ccc(Cl)cc1NS(=O)(=O)c1c(C)[nH]c(=O)[nH]c1=O	-9%	1%
51	CCCCN(CC)CCCNC(=O)c1cn(CC(C)C)c(=O)c2c1c1ccccc1n2C	?	-15%&-11%
52	C/C(=N/NC(=O)CCc1ccccc1)c1ccc2c(c1)OCO2	-12%	-18%

(further entries)
entry	SMILES	N370S GC mod	FEN1 inhibitor
61	CC1CCC(C(C)C)C(OC(=O)Cn2c(-c3ccc(Br)cc3)[n+](C)c3ccccc32)C1 (stereo not given)	-6%&-10%	-1%&-9%
62	O=C(COC(=O)C12CC3CC(CC(C3)C1)C2)Nc1ncc(Cl)cc1Cl	-1%	-13%
63	COc1ccccc1/C=C(\NC(=O)c1ccc(OC)c(OC)c1)C(=O)Nc1cc([N+](=O)[O-])ccc1C	1%	-10%
64	CSc1nc(N)c2c(n1)OC(N)=C(C#N)C2c1cccnc1 (stereo not given)	14%	-10%
65	O=C(Nc1ccc2nc(SCc3ccc(Cl)cc3)sc2c1)c1ccccc1C(=O)N1CCOCC1	1%	2%
66	O=S(=O)(Nc1nccs1)c1ccc(Br)cc1	2%	1%
67	CC(=O)c1nc2ccccc2n1S(=O)(=O)c1ccc(C)cc1	11%	-9%
68	CSc1nc2c(cc1C#N)CCC2	2%	-1%
69	N#Cc1c(-c2ccco2)nc(NCC2CCCO2)[nH]c1=O (stereo not given)	-3%	5%
70	COc1ccc2c3c1OC1CC(O)C=CC31CCN(C)C2 (stereo not given)	1%&-5%	-3%&-20%
71	Cc1ccc(S(=O)(=O)N2C(=O)CCC2C(=O)O/N=C(\N)c2ccc([N+](=O)[O-])cc2)cc1 (stereo not given)	1%	-6%
72	O=C(CN1CCC(C(=O)c2cccc(Cl)c2)CC1)Nc1cccc(C(=O)O)c1	-5%	12%
73	Cc1ccccc1OCC(=O)OCC(=O)c1c[nH]c2ccccc12	·	-15%
74	O=C(N/N=C1/CC2C=CCC12)c1cccs1 (stereo not given)	3%	-2%
75	COc1cc(C2C3C(=O)N(Cc4ccccc4)C(=O)C3ON2c2ccccc2)cc(OC)c1OC (stereo not given)	-5%	-3%
76	CC(C)(C)NC(=O)c1ccc(COc2ccccc2Br)o1	7%	-2%
77	Cc1sc2nc(C3CC3)nc(SCC(=O)N3CC(=O)Nc4ccccc43)c2c1C	-5%	-18%
78	COc1cc2c(C)c3c4c(cc(OC)c(OC)c4c2cc1OC)CCN3C	-13%	·
79	Cc1nn(C(=O)CCCC(=O)NCc2ccccc2)c2ccccc12	-1%	?
80	Cn1c(N)c(N2CCN(c3ccccc3)CC2)c(=O)[nH]c1=O	13%	19%
81	COc1ccc(N2CCN(c3nc(Nc4ccc(C)c(F)c4)nc(N4CCCC4)n3)CC2)cc1	-1%	-3%
82	O=C(O)c1ccc2nc(-c3ccccc3)sc2c1	-26%	-3%
83	Cc1ccc(S(=O)(=O)n2nc(OC(=O)c3cccc(F)c3)cc2N)cc1	3%	4%
84	CCOC(=O)c1cc(C#N)c(N2CCN(C)CC2)nc1-c1ccccc1	9%	-5%
85	Fc1ccc(COc2ccc(-c3nnco3)cc2)c(Cl)c1	-6%	-6%
86	CCOc1ccccc1NC(=O)Cn1nnc(C(=O)NCCc2ccc(OC)c(OC)c2)c1N	17%	-3%
87	CC(C)(C)NC(=O)CN(C(=O)C(=O)Nc1ccc2c(c1)OCCO2)C(C)(C)C	-7%	8%
88	COc1ccc(OC)c(NC(=O)CSC2=C(C#N)C(c3ccco3)C3=C(CCCC3=O)N2)c1 (stereo not given)	2%	2%
89	O=C(Nc1ccc2nc3n(c(=O)c2c1)CCCCC3)c1ccccc1[N+](=O)[O-]	-31%	-20%
90	Nc1nc(SCC(=O)Nc2ccccc2Sc2ccccc2)n[nH]1	-2%	-17%
91	Cc1cc2ccccc2n2c(SCC(=O)Nc3ccc(S(=O)(=O)N4CCCCC4)cc3)nnc12	22%	-5%
92	CCc1cccc(NC(=O)CCS(=O)(=O)c2cc(Br)cc3c2N(C(C)=O)CC3)c1	·	-2%
93	CCc1ccccc1NCc1cc(=O)oc2cc(C)ccc12	-6%	14%
94	CCOC(=O)Cc1csc(NC(=O)c2c(-c3ccccc3)noc2C)n1	1%	8%
